Screening results: PubChem BioAssay, ICCB-Longwood Screening Facility, Harvard Medical School
MbtI inh: inhibitors of Mycobacterium tuberculosis siderophore enzyme MbtI; P9WFX0; 0.89% of 100,000 active; purified MbtI enzyme, fluorescence intensity read-out; inhibition, %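 (about 17 µg/mL by stock and volumes)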;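 active means above 50% in both replicates, above 80% if mildly self-fluorescent; inactive means the rest, strongly fluorescent compounds included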;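 further: 0% = mean of negative and 100% = mean of positive controls; one replicate is shown; some compounds called inactive have numbers as strong as hits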
Target sequence (P9WFX0 whole entry, looked up): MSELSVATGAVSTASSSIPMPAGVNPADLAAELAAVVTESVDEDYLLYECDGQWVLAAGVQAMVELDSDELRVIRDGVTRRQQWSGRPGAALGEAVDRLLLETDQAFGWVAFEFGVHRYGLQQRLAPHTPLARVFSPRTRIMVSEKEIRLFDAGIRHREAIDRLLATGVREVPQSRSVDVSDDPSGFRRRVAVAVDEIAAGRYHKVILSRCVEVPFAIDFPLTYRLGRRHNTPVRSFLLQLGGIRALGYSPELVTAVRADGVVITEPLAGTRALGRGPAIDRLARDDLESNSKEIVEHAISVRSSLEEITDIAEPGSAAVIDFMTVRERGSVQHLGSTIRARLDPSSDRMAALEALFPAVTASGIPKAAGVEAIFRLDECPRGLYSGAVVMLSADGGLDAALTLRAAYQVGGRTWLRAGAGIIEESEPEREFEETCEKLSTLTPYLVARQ
PV pol inh: inhibitors of poliovirus RNA polymerase binding and polymerization. poliovirus polymerase elongation, fluorescence polarization; stronger effect = lower value. % elongation, % (compound at 16.7 µg/mL). 0.66% of 150,000 active. AID 588519; in the data active means % elongation below about 90%; further: some results filed as inactive read as strong as hits
Mtb MenB inh: inhibitors of Mycobacterium tuberculosis MenB enzyme | P9WNP5 | MenB enzyme assay, absorbance read-out; some hits fall short of the stated cut | 0.43% of 100,000 active | inhibition, %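 (about 12 µg/mL by stock and volumes)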;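 active means mean of two replicates above 30%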;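 further: 0% = no compound and 100% = wells with inactive enzyme; the first replicate is given; strong numbers were not always called active; inactives centre near -10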
Target sequence (P9WNP5 whole entry, looked up): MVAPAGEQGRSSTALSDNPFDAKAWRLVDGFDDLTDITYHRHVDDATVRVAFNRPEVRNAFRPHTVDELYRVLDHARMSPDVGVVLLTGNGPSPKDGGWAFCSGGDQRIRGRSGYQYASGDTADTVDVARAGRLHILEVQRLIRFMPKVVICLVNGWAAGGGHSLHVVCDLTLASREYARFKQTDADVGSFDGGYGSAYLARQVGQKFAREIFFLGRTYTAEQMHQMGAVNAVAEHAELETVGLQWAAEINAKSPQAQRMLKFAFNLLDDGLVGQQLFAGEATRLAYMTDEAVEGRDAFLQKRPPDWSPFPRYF
PV pol inh intensity: recorded beside PV pol inh, whose call it bears; % elongation; measured here: total intensity read-out; formula for this scale not given here;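 total fluorescence in place of polarization; lower means less elongation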
An asterisk follows results filed as active; . = no result given; & = joins results of further samples.

molecule | MbtI inh | PV pol inh | PV pol inh intensity | Mtb MenB inh
C=CCn1c(N)cc(=O)nc1SCC(=O)Nc1ccccn1 | -2 | 101 | 101 | -26
O=C(NCCC1=CCCCC1)NCc1noc2ccccc12 | -4 | 105 | 100 | -27
Nc1ccc2c3c(cccc13)CC2 | 105 | 111 | 126 | -24
CCOC(=O)c1ccc(CNC(=O)c2ccc(S(=O)(=O)c3ccccc3)cc2)o1 | . | 102 | 111 | 2
CN(C1CCCCC1)S(=O)(=O)N1CCCC(C(=O)N2CCC(C(N)=O)CC2)C1 (configuration not stated) | -7 | 101 | 101 | 15
Cc1cc(C)c(C#N)c(SCC(O)CS(=O)c2ccc(C(C)(C)C)cc2)n1 (configuration not stated) | -7 | 99 | 104 | 1
O=C(O)c1cccc(NC(=O)C2CCCO2)c1 (configuration not stated) | -18 | 102 | 104 | -37
CCSc1nc(NC(C)=O)nn1C(C)=O | -9 | 101 | 103 | 6
O=C(NCCc1c[nH]c2ccccc12)c1cccc(S(=O)(=O)N2CCCC2)c1 | -6 | 100 | 99 | -28
CN1/C(=C\C(=O)COC(=O)C2=NNC(=O)CC2)C(C)(C)c2ccccc21 | 7 | 107 | 116 | -21
Cc1ccc(CNCc2ccc(Br)cc2)cc1 | -7 | 100 | 104 | .
Cc1nc2nc(NC(=O)C(C)Oc3ccccc3)nn2c(C)c1Cl (configuration not stated) | -6 | 102 | 101 | 25
O=c1c2c(n3nnnc3n1-c1ccccc1)-c1ccccc1CC21CCCC1 | -21 | 104 | 101 | -74
Cc1sc2ncn(CC(=O)N3c4ccccc4CC3C)c(=O)c2c1C (configuration not stated) | -1 | 100 | 112 | -10
CCc1cccc(C)c1N(C(=O)Cn1c(CN2CCOCC2)nc2ccccc21)C(C)COC (configuration not stated) | 5 | 101 | 102 | -10
O=C1NC(=O)C2(CCSc3ccc(F)cc32)N1 (configuration not stated) | -1 | 132 | 146 | -9
COc1cccc(C(=O)OCC(=O)N2CCCc3ccccc32)c1 | -1 | 111 | 110 | -9
CC(NC(=O)C1CCN(S(=O)(=O)c2ccccc2)CC1)c1ccccc1 (configuration not stated) | 9 | 103&101 | 111&102 | 0
CCOC(=O)O[C@]1(C(=O)COC(=O)CC)CC[C@H]2[C@@H]3CCC4=CC(=O)C=C[C@]4(C)[C@H]3[C@@H](O)C[C@@]21C | 3 | 101 | 103 | 6
O=C1CCN(c2nc(-c3ccccc3)nc3ccccc23)CC1 | 19 | 99 | 102 | -9
CCOC(=O)c1c(C)nsc1NC(=O)c1csc(C)c1C | -29 | 104 | 106 | -3
O=C1/C(=C/c2ccc3c(c2)OCO3)CS(=O)(=O)c2ccccc21 | -2 | 105 | 103 | -158
Cc1ccc(C)c(C(=O)NC2CCCCC2)c1 | -7 | 103 | 101 | -5
Nc1cc(=O)nc2ccccn12 | -9 | 108 | 113 | -15
N#CC(C#N)C1CCS(=O)(=O)C1 (configuration not stated) | 0 | 102 | 98 | .
COc1cccc(C2C(C#N)=C(N)Oc3[nH]c(=O)[nH]c(=O)c32)c1 (configuration not stated) | . | 104 | 98 | -2
O=C1NC2(CCCC2)C(=O)N1CN1CCC(Cc2ccccc2)CC1 | -2 | 105 | 107 | 9
C=CCn1c(SCc2nc(N)nc(N3CCCCC3)n2)nnc1-c1cccnc1 | . | 97 | 97 | 1
CCOc1ccc(-n2nnc(C(=O)NCc3cc(OC)ccc3OC)c2C)cc1 | -22 | 102 | 105 | -6
CCN1CCN(CCNC(=O)c2ccc(N3CCCc4ccccc43)s2)CC1 | -145 | 101 | 101 | -39
O=C(c1ccc(-n2ccc3ccccc32)s1)N1CCCCC1 | -6 | 100 | 100 | -24
CCCCn1nnnc1COC(=O)c1c(-c2c(F)cccc2Cl)noc1C | -10 | 102 | 108 | -28
CC(C)(O)C#CCN1CCCCC1 | -10 | 102 | 101 | -53
CCc1cccc(CC)c1NC(=S)Nc1ccc(C)cc1 | -6 | 104 | 104 | -2
FC(F)(F)c1cccc(NC(=S)NCCNc2nccc(C(F)(F)F)n2)c1 | -2 | 104 | 105 | -24
Cc1cccc(C)c1NC(=O)CN(C)C(=O)c1ccccc1OC(F)F | 0 | 106 | 106 | -13
COc1ccc(-c2noc(CN3CCC(C(=O)N(C)c4cc(C)ccc4C)CC3)n2)cc1OC | -16 | 103 | 103 | -33
Cc1ccc(C)c(SCC(=O)OCC(=O)N2C(C)CCCC2C)c1 (configuration not stated) | -12 | 104 | 109 | .
O=C1CC2(Oc3ccccc3O2)C(=O)NN1 | 5 | 101 | 100 | 12
COc1ccc(CNC(=O)C2CCN(S(=O)(=O)N3CCCCC3)CC2)cc1 | 0 | 105 | 98 | -26

Reformatted with values under each structure: entries from further up
Each structure is followed by: MbtI inh | PV pol inh | PV pol inh intensity | Mtb MenB inh
O=C1CCN(c2nc(-c3ccccc3)nc3ccccc23)CC1
    19 | 99 | 102 | -9
CCOC(=O)c1c(C)nsc1NC(=O)c1csc(C)c1C
    -29 | 104 | 106 | -3
O=C1/C(=C/c2ccc3c(c2)OCO3)CS(=O)(=O)c2ccccc21
    -2 | 105 | 103 | -158
Cc1ccc(C)c(C(=O)NC2CCCCC2)c1
    -7 | 103 | 101 | -5
Nc1cc(=O)nc2ccccn12
    -9 | 108 | 113 | -15
N#CC(C#N)C1CCS(=O)(=O)C1 (configuration not stated)
    0 | 102 | 98 | .
COc1cccc(C2C(C#N)=C(N)Oc3[nH]c(=O)[nH]c(=O)c32)c1 (configuration not stated)
    . | 104 | 98 | -2
O=C1NC2(CCCC2)C(=O)N1CN1CCC(Cc2ccccc2)CC1
    -2 | 105 | 107 | 9
C=CCn1c(SCc2nc(N)nc(N3CCCCC3)n2)nnc1-c1cccnc1
    . | 97 | 97 | 1
CCOc1ccc(-n2nnc(C(=O)NCc3cc(OC)ccc3OC)c2C)cc1
    -22 | 102 | 105 | -6
CCN1CCN(CCNC(=O)c2ccc(N3CCCc4ccccc43)s2)CC1
    -145 | 101 | 101 | -39
O=C(c1ccc(-n2ccc3ccccc32)s1)N1CCCCC1
    -6 | 100 | 100 | -24
CCCCn1nnnc1COC(=O)c1c(-c2c(F)cccc2Cl)noc1C
    -10 | 102 | 108 | -28
CC(C)(O)C#CCN1CCCCC1
    -10 | 102 | 101 | -53
CCc1cccc(CC)c1NC(=S)Nc1ccc(C)cc1
    -6 | 104 | 104 | -2
FC(F)(F)c1cccc(NC(=S)NCCNc2nccc(C(F)(F)F)n2)c1
    -2 | 104 | 105 | -24
Cc1cccc(C)c1NC(=O)CN(C)C(=O)c1ccccc1OC(F)F
    0 | 106 | 106 | -13
COc1ccc(-c2noc(CN3CCC(C(=O)N(C)c4cc(C)ccc4C)CC3)n2)cc1OC
    -16 | 103 | 103 | -33

More records.
molecule | MbtI inh | PV pol inh | PV pol inh intensity | Mtb MenB inh
Cc1cc(-n2c(C)cc(CNCC3(N4CCOCC4)CCCCC3)c2C)no1 | -5 | 102 | 105 | -3
CN1CCN(C(=O)CN(c2cccc(Br)c2)S(=O)(=O)c2ccccc2)CC1 | -11 | 99 | 101 | -28
CCOC(=O)Cn1c2c(c(-c3ccccc3OC)cc1=O)CCCC2 | 2 | 100 | 99 | -21
COC(=O)Cn1nc(C)c2ccccc2c1=O | 6 | 102 | 105 | -18
Cc1cc2c(cc1S(=O)(=O)NCCc1ccccc1)n(C)c(=O)c(=O)n2C | 4 | 101 | 101 | -12
Cc1ccc2c(c1)CCCN2CC(=O)c1ccc2c(c1)OCCO2 | 0 | 105 | 99 | -9
CCC(=O)N(C/C=C/c1ccccc1)c1ccc2c(c1)OCCO2 | 1 | 104 | 103 | -20
Cc1ccc(-c2nc(CS(=O)CC(=O)NCCN3CCCCC3C)c(C)o2)cc1 (configuration not stated) | 2 | 100 | 109 | -24
CC1Cc2ccccc2N1CC(=O)Nc1ccc2c(c1)OCCCO2 (configuration not stated) | -13 | 104 | 105 | -12
CCOC(=O)c1sc(N)c(C(=O)OCC)c1CSc1nc2ccccc2s1 | -1 | 101 | 107 | -3
O=C(NCc1ccco1)c1cc(-c2cccs2)nc2ccccc12 | 70 | 102 | 105 | .
N#C/C(C(=O)N1CCCCC1)=C1/C(=O)Nc2ccccc21 | -1 | 98 | 99 | -27
N#Cc1ccc(NC2=NCCC2)cc1 | -2 | 105 | 111 | -8
CCOC(=O)N1CCC(NC(=O)C(Cc2ccccc2)NC(=O)c2ccco2)CC1 (configuration not stated) | 16 | 104 | 98 | 13
CN(CC(=O)Nc1ccc(Cl)cc1)Cc1cc(=O)n2ccsc2n1 | 14 | 102 | 101 | 15
O=C(OCC(=O)N1CCNC1=O)c1cc(-c2ccc(Cl)cc2)nc2ccccc12 | 196 | 108 | 113 | -14
CC(=O)Nc1ccc(NC(=O)/C=C/c2ccccc2)cc1 | 2 | 103 | 106 | -28
Cc1ccc(C2Nc3ccc(C(=O)c4ccccc4)cc3NC3=C2C(=O)CCC3)o1 (configuration not stated) | -2 | 100 | 100 | -13
CCCN(CCC)C(=O)CSc1nc2ncccc2o1 | -17 | 101 | 103 | 9
CCCNS(=O)(=O)c1ccc(CN2C(=O)c3cccnc3C2=O)cc1 | -14 | 100 | 102 | -5
CCN1CCN(Cc2cccc(Br)c2)CC1 | -6 | 99 | 103 | -52
Cc1cnnc(/N=C(\N)Nc2ccc(S(=O)(=O)Nc3nc(C)ccc3C)cc2)n1 | . | 100 | 108 | -19
CC1CN(c2ncc(C(=O)OCC3CC3)c(C(F)(F)F)n2)CC(C)O1 (configuration not stated) | 17 | 107 | 102 | -20
CCOCCCN=C1SCC(CC)N1C(=O)c1ccc(C#N)cc1 (configuration not stated) | -8 | 89* | 89* | 4
Cc1cc(C(N)=O)c(C)n1-c1ccc(-c2nc3ccccc3[nH]2)cc1 | 125 | 99 | 101 | -2
Nc1cc(C(=O)OCC(=O)NC2CCCCCC2)ccc1Cl | -16 | 100 | 106 | .
CC(C)(C)c1ccc(C(=O)NCC(=O)NCc2ccccn2)cc1 | -13 | 100 | 107 | -28
O=C(COc1ccccc1F)c1ccc(O)cc1O | 12 | 101 | 103 | -15
COCC(=O)N1CCN(c2ccccn2)CC1 | -249 | 101 | 102 | -32
Cc1nn(CCC#N)c2c1C(c1ccc3c(c1)OCO3)C1=C(CC(C)(C)CC1=O)N2 (configuration not stated) | -60 | 103 | 105 | -18
COc1cc(/C=C/C(=O)N2CCC(C)CC2)ccc1OCc1c(C)noc1C | 18 | 102 | 93 | -23
O=C(COc1ccc(Cl)cc1)NCCC12CC3CC(CC(C3)C1)C2 | -10 | 104 | 100 | -5
Cc1ccc(NN)cc1 | 18 | 103 | 101 | .
c1ccc(-c2nsc(N3CCOCC3)n2)cc1 | -11 | 105 | 98 | 3
Brc1ccc(Oc2ccc(Nc3nc4ccccc4o3)cc2)cc1 | 23 | 102 | 105 | -55
Cc1nn(CO)c(C)c1Sc1ccc(Br)cc1 | -22 | 100 | 105 | -21
Cc1cnc(C(=O)OCC(=O)N2CC(C)CC(C)C2)cn1 (configuration not stated) | -1 | 111 | 110 | -26
COc1ccccc1NC(=S)N(CCN(C)C)C(C)c1ccncc1 (configuration not stated) | 13 | 100 | 102 | -13
CCOc1ccccc1NC(=O)N1CCOc2ccc(Cl)cc21 | -6 | 104 | 108 | -22
CCOC(=O)N1CCN(C(=O)CS(=O)Cc2nc(-c3cccc(C)c3)oc2C)CC1 (configuration not stated) | 21 | 102 | 104 | -8
Nc1nnc(SCC(=O)N2c3ccccc3Sc3ccc(C(F)(F)F)cc32)s1 | 1 | 102 | 105 | -7
O=C(COC(=O)C1=NNC(=O)CC1)NCc1ccco1 | -7 | 100 | 107 | -2
Cc1nn(C)c(C)c1NC(=O)CNC(=O)Cc1cccc2ccccc12 | 4 | 99 | 100 | -3
NS(=O)(=O)c1ccc(Cl)c(Cl)c1 | -8 | 105 | 103 | -5
CC(=O)SCCC(=O)N1CCn2c3c(c4cc(C)ccc42)CCCC31 (configuration not stated) | -61 | 102 | 101 | -22
O=C(CC1CC(=O)Oc2ccccc21)Nc1nccs1 (configuration not stated) | -2 | 100 | 99 | 14
O=C(OCc1nc2c(oc3ccccc32)c(=O)[nH]1)C(O)(c1ccccc1)c1ccccc1 | -17 | 106 | 121 | -7
CN1CCN(C(=O)Cc2ccc(F)cc2)CC1 | . | 106 | 116 | -3
Cn1c(-c2ccccc2)c[n+]2c1CCCCC2 | -10 | 101 | 104 | .
CN(C)c1nc(N)nc(CSc2ccccn2)n1 | 2 | 99 | 101 | -24
CCc1ccc(NC(=O)Cn2c(=O)n(CCc3ccccc3)c(=O)c3c4c(sc32)CCCC4)cc1 | -3 | 102 | 102 | -4
O=C(COC(=O)CCc1c[nH]c2ccccc12)Nc1ccccc1Cl | -12 | 103 | 106 | .
